Rango dissoc inh = prevents RanGTP from dissociating the Rango-importin beta complex; Biochemical FRET Rango-importin beta, RanGTP-induced dissociation; AID 540253; 340,000 compounds, 0.071% hits; O95149+P62826; Potency, µM (titrated, usually from 46.1 µM), for inactives: at the top dose activity change, negative = inhibition; active means falling FRET ratio curve, often poorly fitted, with flat reads before Ran was added; inconclusive means other falling curves, or compound fluorescence or quenching; inactive means flat or rising ratio curve;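 further: potency means the concentration at half of the fitted maximal effect; % of control where 0% means no effect; nearly all actives have a fitted effect of over 45% in size; -100% = wells without RanGTP and RCC1; the record marks most hits as doubtful in a second field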
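Compounds preincubate 5 min with complex of recombinant Rango and importin beta in PBS with 1 mM DTT. Ran (0.6 uM) loaded with 2 mM GTP plus 0.2 uM RCC1 starts dissociation; FRET is recorded 45 min later.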
GLA inh pH 4.5 = blocks human alpha-galactosidase A at pH 4.5; P06280; purified enzyme, 4-MU-alpha-Gal fluorescence, pH 4.5; activity change, negative = inhibition, % at 105 µM; 230,000 tested, under 10 active; inconclusive = small, poorly fitted or top-dose-only inhibition, or a rising curve; inactive = flat fitted curve, though single readings scatter; no compound was filed as active;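 further: 0% = full activity with enzyme and -100% = basal without enzyme; dose as in the result columns while the protocol names 77 µM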
Target sequence (P06280 whole entry, looked up): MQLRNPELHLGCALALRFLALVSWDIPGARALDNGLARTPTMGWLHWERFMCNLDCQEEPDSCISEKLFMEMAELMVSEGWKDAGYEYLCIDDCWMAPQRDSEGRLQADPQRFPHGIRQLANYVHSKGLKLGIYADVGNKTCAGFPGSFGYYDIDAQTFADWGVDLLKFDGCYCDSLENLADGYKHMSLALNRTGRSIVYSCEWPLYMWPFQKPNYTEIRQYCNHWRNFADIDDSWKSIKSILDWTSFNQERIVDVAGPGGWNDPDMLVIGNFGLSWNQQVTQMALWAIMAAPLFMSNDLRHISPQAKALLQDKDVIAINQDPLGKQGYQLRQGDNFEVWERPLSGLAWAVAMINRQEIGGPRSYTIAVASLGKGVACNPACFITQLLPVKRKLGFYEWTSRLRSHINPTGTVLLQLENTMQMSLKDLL
miR-21 FLuc = miR-21 reporter, rising signal | HeLa miR-21 FLuc reporter, luciferase, 48 h | Potency, µM (highest dose often 38.3 µM), without a hit: at the top dose reporter change, positive = more light | 340,000 tested, under 10 active; active = well fitted rising curve with a large enough effect; inconclusive = small, poorly fitted or top-dose-only effect; inactive = no such curve, though single readings can be large or run the other way;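 further: % of control where 0% means no effect; miR-21 action dims this reporter so a rising signal means less miR-21 action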
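HeLa miR-21-FLuc reporter line, endogenous miR-21; 2000 cells/well in DMEM/10% FBS; compound titration up to ~40uM final, 48 h, 37 degree Celsius; luciferase detection reagent, 15 min lysis, CCD luminescence.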
Rango-impB inh = prevents formation of the Rango-importin beta complex; Rango CFP/YFP FRET sensor + importin beta, 45 min; Potency, µM (highest dose often 92.2 µM), inactives show top-dose inhibition of complex formation; 340,000 compounds, 0.031% hits; active = rising FRET ratio curve, often small or poorly fitted; inconclusive = mostly compound fluorescence or quenching in the first reads; inactive = flat curves in all reads;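 further: potency means the concentration at half of the fitted maximal effect; 0% = DMSO wells and 100% = buffer wells lacking importin beta; nearly all actives have a fitted effect of over 15% in size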
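Inhibition scored from the CFP 486 nm/YFP 530 nm FRET ratio 45 min after adding 0.125 microM importin beta to 50 nM Rango biosensor preincubated 5 min with compound (room temperature, PBS with DTT, Tween-20, BSA). No-importin wells as positive control.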
* = called active by the depositor; ? = inconclusive; . = no result given; & = joins results of further samples.

SMILES	Rango dissoc inh	GLA inh pH 4.5	miR-21 FLuc	Rango-impB inh
Cc1ccc2c(c1)c1c3n2CCN=C3CCC1	1%	-2	-1%	?
CC1(C)CC(NCc2cccc([N+](=O)[O-])c2)CC(C)(C)N1	3%	.	-18%	3.0%
COc1ccc(Br)cc1C(=O)N/N=C/c1ccc([N+](=O)[O-])cc1	1%	-5	-2%	3.7%
O=C(Nc1cnn(Cc2ccccc2)c1)c1nc2ncccn2n1	0%	-5	-30%	2.2%
C#CCSC1=C(C#N)C(c2cccs2)C(C(=O)OCC)=C(C)N1 (stereo unspecified)	-11%	-14	-16%	-2.5%
CC(OC(=O)Cc1ccc(Br)cc1)C(=O)NC1CCCCC1C (stereo unspecified)	5%	.	-6%	-0.3%
CCOC(=O)c1nnn(CC(=O)Nc2cccc(OC)c2)c1C(=O)OCC	2%	1	3%	-0.6%
CCOc1ccc(OCCC(=O)OCC(=O)NNC(=O)c2ccccc2)cc1	0%	.	.	5.5%
CCCOP(=O)(c1ccc(N(C)C)cc1)C(O)c1ccc(Cl)cc1Cl (stereo unspecified)	12%	.	12%	-2.7%
CCOc1ccccc1NC(=O)C1CCCC1	4%	.	.	-3.5%
Cn1c(SCC(=O)NC(c2ccccc2)c2ccccc2)nnc1-c1cccs1	14%	3	-1%	-0.7%
CC(C)c1ccc(NC2CCCN(C(=O)CSc3nncn3C)C2)cc1 (stereo unspecified)	-19%	.	-1%	-0.2%
O=C1CC(N2CCN(c3cccc(C(F)(F)F)c3)CC2)C(=O)N1c1ccccc1 (stereo unspecified)	-10%	-5	3%	0.2%
Cc1cc(C)n2nc(CNS(=O)(=O)c3ccc(F)cc3)nc2n1	-18%	.	-1%&-2%	3.9%
CCn1nnc2cc(C(=O)N(CCOC)CC(=O)Nc3cccc(C)c3C)ccc21	-9%	.	.	0.7%
NC(=O)CC(NC(=O)Cc1cccc2ccccc12)c1ccc(NCc2ccc(F)cc2)c([N+](=O)[O-])c1 (stereo unspecified)	-34%	-4	-1%	0.3%
Cc1c(CCC(=O)NCCCn2ccnc2)c(=O)oc2c(C)c3occ(C(C)(C)C)c3cc12	-12%	.	4%	5.8%
O=C(CCn1c(=S)[nH]c2ccccc2c1=O)Nc1ccc(F)cc1	15%	.	-1%	-3.9%
O=C(C1CC1)N1CCc2cc(S(=O)(=O)NCC3COc4ccccc4O3)ccc21 (stereo unspecified)	-7%	-5	3%	3.3%
O=C1COc2ccc(C(=O)COc3ccc([N+](=O)[O-])cc3)cc2N1	16%	-2	-9%	1.1%
COc1ccc(/C=N/NS(=O)(=O)c2ccc(F)cc2)cc1CN1CCSCC1	0%	.	-2%	0.1%
O=C(NC1CCCN(Cc2ccc(Cl)cc2)C1)C1CCC1 (stereo unspecified)	48%	.	-2%	1.2%
Cc1nc2sc(C(c3cccc(F)c3)N3CC(C)OC(C)C3)c(O)n2n1 (stereo unspecified)	8%	7	0%	3.0%
COc1ccc(C(C)=O)cc1CC(=O)N(Cc1ccccc1)c1ccccc1	26%	.	4%	0.1%
S=c1[nH]nc(C2CCCCC2)n1Cc1ccccc1	10%	8	1%	2.2%
CCCSc1cc(NCCOC(C)=O)c([N+](=O)[O-])c2nonc12	-13%	-11	-11%	-4.2%
CCOc1ccc(NS(=O)(=O)c2ccc(C(=O)NC3CCN(Cc4ccccc4)CC3)cc2)cc1	-1%	.	.	1.9%
Cn1nc(CC(=O)NC2CCCCC2)c2ccccc2c1=O	1%	2	2%	-0.4%
COc1c(C)oc2cc(O)ccc2c1=O	-10%	20	-5%	-2.6%
Cc1cc2c(Nc3cccc(O)c3)ncnc2s1	1%	.	-30%	-0.8%
CCC(Sc1nnc(-c2ccco2)n1C)C(=O)Nc1nnc(C)s1 (stereo unspecified)	-6%	.	5%	-1.3%
COc1ccc2c3c1O[C@H]1C[C@@H](O)C=C[C@@]31CCN(C)C2	-12%	-11&-1	-1%	-0.1%
CCN1CCN(c2ccc([N+](=O)[O-])cc2C(=O)c2ccc(Cl)cc2)CC1	-4%	0	4%	1.8%
O=C(CC1C(=O)NCCN1Cc1c(F)cccc1Cl)NC1CCCC1 (stereo unspecified)	3%	-14	-2%	2.7%
CC(OC(=O)/C=C/c1ccc(Br)cc1)C(=O)N1CCOCC1 (stereo unspecified)	2%	.	.	1.4%
O=C(NN=Cc1ccccc1)NN=Cc1ccccc1	2%	.	.	0.9%
COc1ccccc1NC(=O)c1ccc2[nH]c(C)c(C)c2c1	-5%	.	-78%	7.0%
O=C(COc1cccnc1[N+](=O)[O-])NCc1cccs1	-8%	12	-14%	-4.1%
CCOC(=O)c1c(NC(=S)Nc2ccc(F)cc2)sc2c1CCC2	-8%	2	0%	-1.9%
O=C(NCCc1ccc(C(F)(F)F)cc1)c1ccc2c(c1)OCO2	8%	.	.	3.8%
NC(=O)/C(=C\c1cccnc1)NC(=O)c1ccccc1	3%	-5	-5%	-0.3%
Cc1sc(NC(=O)CN2CCN(c3ccccn3)CC2)c(C#N)c1C	4%	1	0%	0.1%
Cc1ccc(N(C(=O)c2ccco2)C(C(=O)NC2CCCC2)c2cccnc2)cc1 (stereo unspecified)	-8%	.	8%	-0.1%
COc1ccc2c(C)cc(SCC(=O)NCC3CCCO3)nc2c1 (stereo unspecified)	5%	.	.	3.1%
O=C(Nc1nnc(COc2ccccc2)s1)C1CCN(S(=O)(=O)c2ccc(Cl)cc2)CC1	8%	11	2%	1.2%
CC(C)CS(=O)(=O)C1=NSC2=NC(=O)/C(=C\c3ccc(OC(=O)c4ccco4)cc3)C(=N)N21	?	.	1%	?
Cc1occc1C(=O)N/N=C/C1=C(N2CCOCC2)C(=C\c2ccc(Cl)cc2Cl)/CC1	-30%	-3	-43%	?
Cc1ccc(NC(=O)Nc2cc(C)on2)cc1	-10%	9	-51%	4.9%
S=C(Nc1ccc(Cl)c(Cl)c1)NC1CCCCC1	-1%	-7	26%	5.1%
O=C(NCCO)C(c1ccccc1)c1ccccc1	-1%	-1	5%	2.2%
COc1ccccc1CN1CC(C(=O)N2CCC(OC)CC2)CCC1=O (stereo unspecified)	-10%	.	-5%	-2.7%
Cn1cccc1C(=O)OCC(=O)NCCc1ccc(S(N)(=O)=O)cc1	25%	.	.	-1.2%
Cc1c(/C=N/NC(=O)CNc2ccccc2)c2ccccn2c1C(=O)c1ccc(Cl)cc1	?	0	25%	?
CC(C)CN(C(=O)COC(=O)C12CC3CC(CC(O)(C3)C1)C2)C1CCS(=O)(=O)C1 (stereo unspecified)	-14%	5	-2%	1.5%
Nc1c(N(CCC2=CCCCC2)C(=O)C2CC2)c(=O)[nH]c(=O)n1Cc1ccccc1	0%	.	-1%	-0.2%
CC1C(=O)N2CCCc3cc(S(=O)(=O)NCCc4ccccc4)cc1c32 (stereo unspecified)	-10%	.	2%	1.2%
Cc1ccc(C(=O)OCC(=O)Nc2ccc(S(N)(=O)=O)cc2)c(O)c1	-6%	2	-7%	-0.8%
CC(C)C[C@@H](CNCC(=O)[C@H](Cc1c[nH]c2ccccc12)NC(=O)c1[nH]cnc1C(=O)N[C@@H](C)CN)NC(=O)c1nc[nH]c1C(=O)N[C@@H](CC(=O)O)C(=O)O	-18%	.	.	0.7%
COc1ccc(N(C)C2=NS(=O)(=O)c3ccccc32)cc1	-2%	-1	23%	-3.8%
O=C(NCC(=O)N(c1cccnc1)C(C(=O)NC1CCCCC1)c1ccccc1F)c1ccco1 (stereo unspecified)	2%	.	4%	-1.3%

Profiles, quoted from the list. Screens in order: Rango dissoc inh, GLA inh pH 4.5, miR-21 FLuc, Rango-impB inh
Listed for O=C(NCC(=O)N(c1cccnc1)C(C(=O)NC1CCCCC1)c1ccccc1F)c1ccco1 (stereo unspecified) : 2%, ., 4%, -1.3%
Listed for Cc1c(/C=N/NC(=O)CNc2ccccc2)c2ccccn2c1C(=O)c1ccc(Cl)cc1 : ?, 0, 25%, ?
Listed for O=C(NCCO)C(c1ccccc1)c1ccccc1 : -1%, -1, 5%, 2.2%
Listed for Cn1cccc1C(=O)OCC(=O)NCCc1ccc(S(N)(=O)=O)cc1 : 25%, ., ., -1.2%
Listed for Nc1c(N(CCC2=CCCCC2)C(=O)C2CC2)c(=O)[nH]c(=O)n1Cc1ccccc1 : 0%, ., -1%, -0.2%

(next part)
SMILES	Rango dissoc inh	GLA inh pH 4.5	miR-21 FLuc	Rango-impB inh
Cc1cc(NC(=O)CCCC(=O)NCc2cccs2)no1	30%	3	-3%	0.2%
Cc1c(Cl)ccc2c(C(=O)NC(C)c3ccncc3)cc(-c3ccncc3)nc12 (stereo unspecified)	.	-10	-12%	.
Cc1cc(-c2ccc(NS(=O)(=O)c3ccccc3)c(C)c2)ccc1NS(=O)(=O)c1ccccc1	2%	.	.	0.0%
CC(C)C[C@H](NC(=O)c1nc[nH]c1C(=O)N1CCN(C(=O)OC(C)(C)C)CC1)C(=O)OCc1ccccc1	30%	-6	10%	13%
CCOC(=O)C1CCN(c2cc3c(cc2NC(=O)c2ccccc2)n(C)c(=O)n3C)CC1	0%	.	-5%	1.8%
CCOC(=O)c1cnc[nH]c1=O	-6%	.	.	1.5%
COc1ccc2[nH]c(C(=O)NCCN3CCOCC3)cc2c1	-17%	1	-5%	-1.0%
Cc1ccc(-c2nc3c(c(=O)c4ccccc4n3C)c(=O)n2Cc2ccco2)cc1	1%	-2	-12%	-2.0%
Oc1ccccc1/C=N/n1c2ccccc2c2ccccc21	9%	-24	-2%	2.0%
CCNc1nc(OCC)nc(N2CCC(Cc3ccccc3)CC2)n1	11%	3	-4%	0.1%
CN(C(=O)CSc1nnc(N)s1)C1CCCCC1	-7%	.	-4%	0.8%
CN(c1ccccc1)S(=O)(=O)c1ccc(C(=O)Nc2nnc(C3=COCCO3)o2)cc1	-4%	11	3%	-3.3%
CN(C)c1ccc(C(CNC(=O)Cc2cccc3ccccc23)N(C)C)cc1 (stereo unspecified)	-3%	.	-5%	4.8%
Cc1ccc(C(=O)C[n+]2cc(-c3ccccc3)n3c2CCCCC3)cc1	32%&20%	-7&-2	?	0.9%&3.4%
CC1(C)N=C(N)N=C(N)N1CCCCc1ccccc1	7%	.	.	-0.1%
CCOC(=O)CNC(=O)c1ccc(C#CC2(O)CCCCC2)cc1	34%	-7	-16%	-3.8%
Cc1c(-n2cc(C(=O)c3cc(F)ccc3O)cc(C#N)c2=O)c(=O)n(-c2ccccc2)n1C	?	-8	-7%	?
CS(=O)(=O)NCCSCc1ccccc1	-21%	-9	-6%	-0.3%
CCOC(=O)c1c(NC(=S)N2CCOCC2)sc2c1CCN(C(=O)OCC)C2	2%	-3	25%	-0.8%
COC(=O)C1CCN(C(=O)CSc2nc3nc(C)cc(C)n3n2)CC1	0%	.	.	-7.4%
Cc1cc(NC(=O)COc2ccccc2C)ccc1NC(=O)c1cccs1	11%	.	-4%	2.9%
Cc1nn(-c2ccccc2)c(N2CCCC2)c1/C=N/NC(=S)Nc1cc(C(F)(F)F)ccc1Cl	-1%	5	-23%	-2.8%
CC[C@H](CO)Nc1nc(Nc2cccc(Cl)c2)c2ncn(C(C)C)c2n1	1%	-22	29%	-1.8%
CSC1=NCCN1C(=O)c1ccc(S(=O)(=O)N(C)C)cc1	-13%	-5	1%	-2.1%
O=C(CSc1ncnc2nc[nH]c12)c1ccc([N+](=O)[O-])cc1	12%	-5	8%	3.4%
CSc1ccc(/C=N/NC(=O)CN2CCN(Cc3ccc(C)cc3)CC2)cc1	11%	-1	-4%	-0.3%
CC(=O)c1sc(NC(=O)CN2C(=O)C3CCCCC3C2=O)nc1-c1ccccc1 (stereo unspecified)	-5%	.	.	-0.5%
CCOc1ccc(OCC(O)CN2CCc3ccccc3C2)cc1 (stereo unspecified)	7%	.	-4%	-0.9%
Brc1ccc2ncnc(NCc3cccnc3)c2c1	-16%	-5	25%	?
CC(=O)Nc1ccc(N2C(=O)CC(c3ccccc3)CC2=O)cc1	-9%	-2	0%	1.4%
COc1cccc(NC(=O)Nc2ccccc2SC)c1	3%	-1	-36%	-0.1%

A portion of the library; rates above refer to the full screens.
